Screens from PubChem BioAssay.
Arbovirus inh – antivirals against arbovirus infection, primary screen, cell-based, full library, 10K replicate subset; arbovirus infection cell-based antiviral screen; inhibition, % at 10 µM; actives 0.37% (n = 200,000); AID 1251, 2008;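 active = inhibition from about 30%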;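 also: bluetongue infection of BSR cells; cell survival read as ATP light after 72 h; 0% = infected wells without compound and 100% = uninfected wells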
Mtb H37Rv – M. tuberculosis H37Rv growth inhibitors, H37Rv strain (AID 1626). M. tuberculosis H37Rv growth inhibition; higher % means a stronger effect. actives 0.95% (n = 220,000). one-dose inhibition, % at 10 µM; IC50 in µM for titrated hits;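 active = confirmed in a dose series; inconclusive = inhibition above 80% but not taken into the dose series; inactive = below 80% or under 30% at every dose of the series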;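 also: bacteria incubated seven days before Alamar blue readout; 0% = bacteria only wells and 100% = bacteria with antibiotic wells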
Mtb bLac sens – beta-lactam sensitization of Mtb H37Rv, H37Rv | inhibition, % at 25 µM | AID 434955, 2010 | actives 0.27% (n = 330,000) | M. tuberculosis H37Rv growth with meropenem, percent inhibition; hits of this screen are not shown here;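 active = about 74% or more and at least 40 points above the plate without the antibiotic, then above 30% in a dose series; inconclusive = first-round hits that could not be retested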;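 also: growth measured after seven days incubation then overnight dye step; 0% = bacteria only wells and 100% = bacteria with antibiotic; twin plates without the antibiotic show which effects depend on it; some results filed as inactive read as strong as hits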
RecA splice inh – Mtb RecA intein splicing inhibitors, primary screen, biochemical, fluorescence, HTS | cell-free RecA intein splicing | actives 0.75% (n = 290,000) | Protein RecA (Mycobacterium tuberculosis (strain ATCC 25618 / H37Rv)), P9WHJ3 | AID 2221, 2009 | inhibition, %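 (about 9 µM by stock and volumes)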; in the data active = inhibition above about 30%; inconclusive = no clear call, values can overlap the other calls;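 also: 0% = vehicle wells and 100% = reference inhibitor control wells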
Target sequence (P9WHJ3 whole entry, looked up, canonical isoform): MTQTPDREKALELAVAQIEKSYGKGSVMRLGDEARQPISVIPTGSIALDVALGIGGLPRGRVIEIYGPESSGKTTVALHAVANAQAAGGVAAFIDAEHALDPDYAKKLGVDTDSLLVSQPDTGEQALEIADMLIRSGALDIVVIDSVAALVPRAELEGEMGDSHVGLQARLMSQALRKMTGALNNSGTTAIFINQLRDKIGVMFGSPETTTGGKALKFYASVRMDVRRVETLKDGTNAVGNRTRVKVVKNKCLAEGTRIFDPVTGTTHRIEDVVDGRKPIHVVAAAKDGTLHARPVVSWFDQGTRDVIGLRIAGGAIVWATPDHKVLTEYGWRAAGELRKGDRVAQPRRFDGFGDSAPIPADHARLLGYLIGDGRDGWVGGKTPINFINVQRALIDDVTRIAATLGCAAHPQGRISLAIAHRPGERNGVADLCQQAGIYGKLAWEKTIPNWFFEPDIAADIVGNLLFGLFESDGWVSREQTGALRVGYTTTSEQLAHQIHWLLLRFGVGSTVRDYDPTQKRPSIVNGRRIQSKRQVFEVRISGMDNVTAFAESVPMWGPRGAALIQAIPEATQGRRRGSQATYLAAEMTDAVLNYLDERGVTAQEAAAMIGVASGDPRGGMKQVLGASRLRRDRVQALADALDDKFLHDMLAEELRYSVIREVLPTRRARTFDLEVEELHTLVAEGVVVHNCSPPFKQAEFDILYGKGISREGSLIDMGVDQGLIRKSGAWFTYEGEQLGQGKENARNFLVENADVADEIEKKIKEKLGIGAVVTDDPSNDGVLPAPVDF
YopH PTP inh – YopH tyrosine phosphatase inhibitors, primary screen, biochemical, fluorescence Ex485/Em525; actives 0.16% (n = 140,000); AID 898, 2007; YopH tyrosine phosphatase [Yersinia enterocolitica]; inhibition, %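 (about 10 µM by stock and volumes)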;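 active = inhibition of 50% or more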;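 also: controls were vehicle for no effect and minimum signal wells for full effect; inactives centre near -20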
Arbovirus inh repeat – also measured in Arbovirus inh; calls as there; inhibition, %; measured here: 10K subset replicate screen; many hits read low in the repeat;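 first of two repeat runs on a subset; 0% = infected and 100% = uninfected wells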
The depositor's hits bear a star; ? = inconclusive; nt = not tested or not shown. An excerpt; the hit share may differ from the screen's.

SMILES	Arbovirus inh	Mtb H37Rv	Mtb bLac sens	RecA splice inh	YopH PTP inh	others
COc1cc(C(=O)NCCC(=O)NC(C)CCc2ccccc2)cc(OC)c1OC (stereo not drawn)	nt	nt	-4	5.6	nt
O=C(OCc1cccc(C(F)(F)F)c1)c1cc(S(=O)(=O)N2CCOCC2)ccc1F	nt	nt	-8	1.7	nt
O=c1c2cnn(-c3ccccc3)c2ncn1Cc1ccccn1	-1	-3%	-3	-0.9	-46
CCOC(=O)Cc1csc(NC(=O)C2CCCCC2C(=O)O)n1 (stereo not drawn)	7	-7%	-14	-0.4	9
Cc1cccc(C(=O)NC2CC3CCCC(C2)N3S(=O)(=O)c2ccccc2)c1 (stereo not drawn)	0	-5%	13	3.9	0
COc1ccc(S(=O)(=O)N/N=C/c2ccc(OCCN3CCOCC3)c(OC)c2)cc1	5	-10%	-3	-8.4	-23
C=CCNC(=O)C(=O)Nc1cc2c3c(c1)CCC(=O)N3CCC2	nt	nt	-10	-1.1	nt
COc1ccc(S(=O)(=O)N2CCN(C(=O)c3ccc(C)o3)CC2)cc1	nt	nt	-3	1.6	nt
CCOc1ccccc1NC(=O)c1ccc([N+](=O)[O-])cc1	13	-2%	3	-2.4	nt
CCCCNC(=O)Cn1cnc2sc(C)c(S(=O)(=O)N3CCN(c4ccccc4OC)CC3)c2c1=O	nt	nt	-5	-0.1	nt
COc1ccc(CCn2c(C)cc(C(=O)COC(=O)c3cnc(C)cn3)c2C)cc1	nt	nt	47	0.2	nt
CC(=O)C1C(c2ccc([N+](=O)[O-])cc2)c2c(noc2C)CC1(C)O (stereo not drawn)	nt	-7%	2	-0.6	nt
COc1ccc(N=C2NN=C(c3c(C)[nH]c4ccccc34)CS2)cc1	-14	39µM*	82	4.5	-25
NC(=O)COc1ccc(NC(=O)CC23CC4CC(CC(C4)C2)C3)cc1	nt	nt	-6	-1.5	nt
CCN(CC)c1ccc(NC(=O)c2[nH]c(C)c(C(C)=O)c2C)c(C)c1	-6	-9%	1	0.1	-2
C[C@@H]1CC2[C@@H]3CC[C@H]4CC(=O)CC[C@]4(C)C3=CC[C@]2(C)[C@@]1(O)C(=O)CO (stereo partly drawn)	nt	nt	-3	1.9	nt
O=C(Oc1ccc(=O)n(-c2ccccc2)n1)c1ccc(Cl)cc1	-5	-5%	3	1.3	15
CCN(Cc1ccccc1)C(=O)c1ccc(Cl)cc1[N+](=O)[O-]	-8	-4%	-4	0.1	nt
CCOC(=O)Nc1sc(C)c(C)c1C(=O)OCC	5	2%	6	1.5	-5
CCCCCCCNC(=O)CN1N=C(c2ccc(C)cc2)CCC1=O	nt	nt	49	2.1	nt
CCOC(=O)c1nn(-c2ccccc2F)c(-c2ccccc2)c1C(=O)c1ccccc1	-5	10%	25	11	-11
CCOc1ccc(-n2c(SCc3ccc(C(=O)OC)o3)nc3c(c2=O)SCC3)cc1	-15	-8%	-11	nt	-27	Arbovirus inh repeat=-3
Cc1cc(C)cc(OCC(=O)OCc2nnc(-c3ccccc3)o2)c1	1	0%	-2	-0.2	nt
Cc1ccc(C(=O)Nc2nnc(-c3ccncc3)o2)cc1	6	5.9µM*	95	2.5	nt
O=C1c2ccccc2C(=O)c2c1ncn2-c1ccccc1	-14	4%	-6	37*	-19
O=C(OCn1nnc2ccccc2c1=O)C1CCN(S(=O)(=O)c2cccs2)CC1	2	5%	-2	-1.1	-22
O=C(/C=C/c1ccccc1)NCCc1ccccc1	nt	-2%	-2	nt	nt
Fc1ccc(N/N=C/C=C/c2ccccc2)c(F)c1	-36	?	95	5.0	-30
O=C1NC(c2ccccc2)Nc2c1sc(=S)n2-c1ccccc1 (stereo not drawn)	18	1%	0	-7.8	nt
CCc1ccc2c(c1)C(O)(CC(=O)c1cccs1)C(=O)N2 (stereo not drawn)	-3	3%	-6	-3.5	nt
Cc1ccc(NC(=O)CCCc2ccccc2)c([N+](=O)[O-])c1	nt	nt	-12	1.1	nt
C/C(=N/N=C(/C)c1cccs1)c1cccs1	nt	nt	14	-0.9	nt
O=C(N/N=C/c1c(Cl)[nH]c2ccccc12)c1sc2ccccc2c1Cl	-9	11%	3	3.7	-19
CCc1noc(C)c1C(=O)N(C)CC(=O)Nc1ccccc1Br	nt	nt	-2	0.2	nt
Cc1cc(C(=O)Nc2cccc(/C=C/C(=O)O)c2)c(C)o1	4	-4%	6	-2.0	-52
CCN(CC)S(=O)(=O)c1ccc(NC(=O)c2ccc(Cl)nc2)cc1	nt	nt	49	0.3	nt
Cc1cc(Cl)ccc1C(=O)C1CCCN(C(=O)c2ccsc2)C1 (stereo not drawn)	nt	nt	-8	6.0	nt
COc1ccc(C(=O)Nc2cccc(OC(=O)c3ccc(C)c(C)c3)c2)cc1	-2	nt	99	4.8	-27
COCCn1c(-c2ccccc2)cc(C(=O)O)c1C	nt	4%	0	0.4	-40
Cc1ccc(C(C)(c2ccc(N)cc2)c2ccc(N)cc2)cc1	nt	nt	69	5.4	nt
COc1cc(NC(=O)CSc2nnc3ccc(-c4ccncc4)nn23)cc(OC)c1	-1	-2%	8	-1.6	nt
O=C1CSc2ccc(C(=O)NCC(c3ccco3)N3CCCCC3)cc2N1 (stereo not drawn)	-4	2%	5	-1.0	nt
CC(=O)Nc1ccc(NC(=O)c2c(C)nc3ccccn23)cc1	8	-14%	5	0.7	-53
Cc1nnc(SCC(=O)Nc2sc3c(c2C#N)CCCCC3)n1N	-1	9%	42	-3.8	-11
C=CCNC(=O)NC(=O)COC(=O)/C=C/c1cccc([N+](=O)[O-])c1	7	5%	0	-2.0	nt

Entries shown so far with two or more sulfur atoms:
SMILES	Arbovirus inh	Mtb H37Rv	Mtb bLac sens	RecA splice inh	YopH PTP inh	others
CCCCNC(=O)Cn1cnc2sc(C)c(S(=O)(=O)N3CCN(c4ccccc4OC)CC3)c2c1=O	nt	nt	-5	-0.1	nt
CCOc1ccc(-n2c(SCc3ccc(C(=O)OC)o3)nc3c(c2=O)SCC3)cc1	-15	-8%	-11	nt	-27	Arbovirus inh repeat=-3
O=C(OCn1nnc2ccccc2c1=O)C1CCN(S(=O)(=O)c2cccs2)CC1	2	5%	-2	-1.1	-22
O=C1NC(c2ccccc2)Nc2c1sc(=S)n2-c1ccccc1 (stereo not drawn)	18	1%	0	-7.8	nt
C/C(=N/N=C(/C)c1cccs1)c1cccs1	nt	nt	14	-0.9	nt
Cc1nnc(SCC(=O)Nc2sc3c(c2C#N)CCCCC3)n1N	-1	9%	42	-3.8	-11

The list continues:
SMILES	Arbovirus inh	Mtb H37Rv	Mtb bLac sens	RecA splice inh	YopH PTP inh	others
CC(C)c1ccc(CNC(=O)C2CC(=O)N(C3CCCCC3)C2)cc1 (stereo not drawn)	nt	nt	-4	-0.1	nt
O=C1C=C(O)CC(c2ccc(Cl)c(Cl)c2)C1 (stereo not drawn)	5	3%	5	-0.5	-27
COc1ccccc1NC(=O)NC1(C(=O)NCC2CCCO2)CCCCC1 (stereo not drawn)	nt	nt	-3	-1.7	nt
CCCn1c(N)c(N(CCOC)C(=O)c2ccc(C#N)cc2)c(=O)[nH]c1=O	nt	nt	2	-1.4	nt
Nc1cnc(CNc2ccccc2Cl)cn1	nt	-6%	-1	0.6	nt
CN(C(=O)c1ccc(Br)o1)C1CCS(=O)(=O)C1 (stereo not drawn)	nt	nt	-3	-0.3	nt
COc1ccc(S(=O)(=O)N2CCCC(C(=O)Nc3ccc(OC)c(OC)c3)C2)cc1 (stereo not drawn)	4	-5%	-1	2.6	-52
CC(C)(C)CNc1cc(N2CCCC2)ccc1[N+](=O)[O-]	9	-1%	12	-0.4	-42
O=C(NCc1ccccn1)C(=O)NCC1OCCN1S(=O)(=O)c1ccc(F)cc1 (stereo not drawn)	nt	nt	-7	-2.3	nt
CCOC(=O)N1CCN(S(=O)(=O)c2cccs2)CC1	-6	-12%	-2	1.3	-18
CCCCCN(C(=O)CCC(=O)OCC(=O)c1ccc(CCC)cc1)c1c(N)n(CCCC)c(=O)[nH]c1=O	nt	nt	2	-1.4	nt
O=C(c1ccc(F)cc1)n1ccc(-c2cnc(-c3ccccc3)s2)n1	5	4%	4	4.5	-8
CC1(C)Cc2cccc(OCC(=O)OCC(=O)NCc3ccc(F)cc3)c2O1	nt	nt	3	-0.3	nt
CNC(=S)NNc1ccccc1[N+](=O)[O-]	0	4%	-10	-2.2	nt
COc1ccccc1C1CC(c2ccco2)=NN1S(C)(=O)=O (stereo not drawn)	-4	-7%	-6	3.9	nt
COCC(=O)N(Cc1nc2ccccc2c(=O)[nH]1)Cc1cccs1	9	nt	-7	-0.1	7
CC(C)(O)CNC(=O)C(Cc1ccccc1)N1C(=O)c2ccccc2C1=O (stereo not drawn)	nt	nt	-6	-0.7	nt
O=C(CSc1nc2ccccc2[nH]1)c1ccco1	4	-8%	-8	-3.3	-32
CCc1cc(-c2n[nH]c(=S)n2Cc2ccccc2)cs1	-14	nt	-10	7.0	-15
CC(=O)Nc1ccc(C(=O)CSc2nnc(Cc3ccccc3)o2)cc1	2	-7%	95	0.1	-2
O=C(CN1CCCCC1)NC(=O)NC1CCCC1	4	-8%	0	-0.5	nt
COc1ccc(Cl)cc1S(=O)(=O)N1CCC(C(=O)N2CCOCC2)CC1	nt	nt	0	-0.7	nt
Cc1ccc(SCCC(=O)N/N=C/c2cccnc2)cc1	4	3%	1	-3.9	nt
COCCC1CCCCN1C(=O)c1cccc(OC2CCN(C3CCCC3)CC2)c1 (stereo not drawn)	0	6%	-16	-1.7	nt
N/C(=N\c1nc2ccccc2o1)NC(=O)c1ccc(Cl)cc1	1	7%	6	-0.7	-27
CCN(CC)CCNC(=O)c1cc2cc3ccc(OC)cc3nc2o1	nt	nt	-1	-4.1	nt
Cc1ccc(N/C(N)=N/c2nc(C(F)(F)F)cc(C(F)(F)F)n2)cc1	-7	4%	2	-0.5	nt
Cc1cc(CCC(=O)O)c(C)cc1CCC(=O)O	-2	0%	-12	-0.9	-34
CCN(CC)c1ccc(Nc2nc(-c3cccnc3)cs2)cc1	nt	nt	9	-0.9	nt
CCCCCOc1ccc(C(=O)OC(C)C(=O)NCc2ccco2)cc1 (stereo not drawn)	nt	nt	-12	0.7	nt
Cc1ccnc(NS(=O)(=O)c2ccc(NS(=O)(=O)c3cccs3)cc2)n1	-4	4%	7	1.6	-53
CCc1ccccc1N(CC(=O)NC1CCCCC1)C(=O)CNC(=O)c1ccco1	nt	nt	7	1.7	nt
CC(C)(C)NC(=O)c1ccc2c(c1)N(CC(=O)N1CCN(c3ccccc3F)CC1)C(=O)C(C)(C)O2	-11	2%	-3	nt	-9
Cc1ccccc1Cn1nc(C)c(NC(=O)C2c3ccccc3Oc3ccccc32)c1C	2	1%	?	1.3	-7
COc1ccc(/C=C\C(=O)c2c(O)ccc3c(C)cc(=O)oc23)cc1	-27	11%	81	0.8	-8
COC(=O)c1[nH]c2cccc(OC)c2c1NC(=O)CN1CC2(C)CC1CC(C)(C)C2 (stereo not drawn)	5	3%	-4	-2.4	-1
CCOc1cc(S(=O)(=O)n2nc(C)cc2C)ccc1Br	1	5%	-4	0.2	nt
CC1(C)S[C@@H]2C(C(=O)OCc3ccccc3)NC(=O)N2C1C(=O)OCc1ccccc1 (stereo partly drawn)	nt	-13%	-15	1.6	nt
CCSC(=O)CCCCCCCCCCCO	-10	7%	95	7.8	-18
CC(=O)c1ccc(NC(=O)CCC(=O)OCC(F)(F)C(F)F)cc1	-1	-3%	-1	-0.9	-45
Cc1ccc2nc(-c3ccncc3)[nH]c2c1	nt	nt	1	-1.4	nt
COc1ccc(CC(=O)Nc2nc(-c3ccc(OC)c(OC)c3)cs2)cc1OC	nt	nt	5	-0.6	nt
Cc1cccc(-c2n[nH]c(=S)n2Cc2ccccc2)c1	-28	3%	1	2.4	-5

Entries listed so far with a tert-butyl group:
SMILES	Arbovirus inh	Mtb H37Rv	Mtb bLac sens	RecA splice inh	YopH PTP inh	others
CC(C)(C)CNc1cc(N2CCCC2)ccc1[N+](=O)[O-]	9	-1%	12	-0.4	-42
CC(C)(C)NC(=O)c1ccc2c(c1)N(CC(=O)N1CCN(c3ccccc3F)CC1)C(=O)C(C)(C)O2	-11	2%	-3	nt	-9
